Screening results as filed in PubChem BioAssay.
MT1-MMP act inh: MT1-MMP (human) activation inhibition; 360,000 tested, 0.061% active; HT1080 RFP-PRO-GFP cells, GFP/RFP ratio fluorescence, overnight; percent of plate control window, DMSO zero; GFP/RFP ratio change, % at 20 µM;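 active = GFP/RFP ratio change of at least 30% with cell ATP level not reduced by more than half and red fluorescence within 50% of control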; note: strong numbers were not always called active
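Test system: HT1080 cells expressing an RFP-PRO-GFP fluorescent reporter construct / Compound dosing: single-point 20 µM compound, 1% DMSO / Schedule: cells overnight before dosing, compound overnight, 37 °C, 5% CO2 / Evaluation: GFP/RFP fluorescence ratio / Control set: DMSO and RFP-L50D-GFP cell wells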
UUG fidelity: alters start codon recognition fidelity in yeast; S. cerevisiae UUG-firefly luciferase reporter, luminescence/redox ratio; activity score, % at 18.7 µM; 350,000 tested, 0.13% active;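 active = replicate mean at a twofold rise or more, about +100% in these data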;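 note: firefly luciferase made from a UUG start codon reports start codon fidelity; reporter light over untreated wells divided by growth signal over untreated wells; some hits fall short of that in this replicate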
Rce1 inhib: inhibitors of yeast Ras-converting enzyme; AID 2563; yeast membranes, quenched prenylated peptide cleavage fluorescence; 290,000 tested, 0.27% active; Q03530; calls only;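 active = fall in fluorescence gain of 50% or more versus controls, with final raw signal at or below 3038400; inconclusive = same 50% fall but final raw signal above 3038400; inactive = fall in fluorescence gain under 50%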;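 note: plate controls were neutral control wells for no effect and wells lacking membranes for full effect; tested at 10 µM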
Target sequence (Q03530 whole entry, looked up): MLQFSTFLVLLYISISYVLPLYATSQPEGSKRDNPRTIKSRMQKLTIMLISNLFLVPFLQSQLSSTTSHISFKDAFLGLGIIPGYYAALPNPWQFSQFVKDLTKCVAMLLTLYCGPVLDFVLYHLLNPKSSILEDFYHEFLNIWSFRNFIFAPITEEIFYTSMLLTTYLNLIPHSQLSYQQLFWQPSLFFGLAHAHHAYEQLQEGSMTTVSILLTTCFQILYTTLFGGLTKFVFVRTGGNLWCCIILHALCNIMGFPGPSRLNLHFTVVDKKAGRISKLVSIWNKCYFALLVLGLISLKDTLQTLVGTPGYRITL
PABP FP inh: blocks human PABP binding to poly(A) RNA | fluorescence polarization | inhibition, % at 35 µM | 290,000 tested, 1% active | AID 2014;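 active = 50% or more with normal probe brightness, or confirmed in later tests; inconclusive = above 50% with abnormal brightness, or retests that disagree; inactive = below 50% or failed in later tests; about a fifth of its hits are not listed in these tables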;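 note: calls also rest on retests at 20 µM and on dose response follow-up; controls were probe without protein and protein plus probe with vehicle; some compounds called inactive have numbers as strong as hits; many hits fall short of the cut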
Target sequence (P11940 whole entry, looked up): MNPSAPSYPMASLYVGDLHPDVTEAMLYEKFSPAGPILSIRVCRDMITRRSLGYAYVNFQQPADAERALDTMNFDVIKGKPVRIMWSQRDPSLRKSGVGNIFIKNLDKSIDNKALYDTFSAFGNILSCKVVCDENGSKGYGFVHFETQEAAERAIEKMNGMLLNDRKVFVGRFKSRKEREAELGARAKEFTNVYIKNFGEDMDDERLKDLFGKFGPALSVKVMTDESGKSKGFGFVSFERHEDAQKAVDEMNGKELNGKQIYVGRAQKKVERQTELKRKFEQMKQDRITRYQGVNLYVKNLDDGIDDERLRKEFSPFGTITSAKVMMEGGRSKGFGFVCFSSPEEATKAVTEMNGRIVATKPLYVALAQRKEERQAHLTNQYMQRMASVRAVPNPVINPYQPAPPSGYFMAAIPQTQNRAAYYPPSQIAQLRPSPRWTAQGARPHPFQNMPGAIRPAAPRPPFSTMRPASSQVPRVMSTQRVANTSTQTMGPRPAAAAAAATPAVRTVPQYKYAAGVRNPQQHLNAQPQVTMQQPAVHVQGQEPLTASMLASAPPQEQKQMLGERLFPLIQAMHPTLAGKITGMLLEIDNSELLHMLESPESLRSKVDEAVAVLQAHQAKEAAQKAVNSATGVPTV
eIF4H inh: inhibitors of RNA binding by human eIF4H | Q15056 | eIF4H fluorescence polarization binding assay | inhibition, % at 35 µM | 290,000 tested, 0.94% active;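 active = 50% or more with normal probe brightness, or confirmed in later tests; inconclusive = above 50% with abnormal brightness, or retests that disagree; inactive = below 50% or failed in later tests; about a fifth of its hits are not listed in these tables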;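 note: calls also rest on retests at 20 µM and on dose response follow-up; 0% = protein and probe with vehicle and 100% = probe without protein; strong numbers were not always called active; many hits fall short of the cut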
Env fusion inh: HIV envelope-mediated fusion inhibition | AID 651610 | inhibition, % at 12.3 µM | HeLa-JRFL Env/CEM21 cell fusion, luciferase | 360,000 tested, 1.1% active;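 active = mean replicate inhibition score of at least 50 and every replicate individually at or above 50; inconclusive = only one of the two criteria met; inactive = mean below 50 and not all replicates reaching 50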;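 note: 0% = plate neutral controls and 100% = maraviroc near 300 nM; one replicate is shown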
CSC inhib: blocks cancer stem cells; cancer stem cell-like cells viability, luminescence; inhibition, % at 7.5 µM; 300,000 tested, 1.1% active; AID 2717;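 active = mean at 75% or more and at least half the replicates too; inconclusive = mean and replicates disagree; tested in HMLE shEcad cells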;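 note: 0% = median of negative and 100% = median of positive control wells; the first replicate is given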
eIF4H inh retest: further read-out of eIF4H inh, marked with its call; inhibition, %; compound at 20 µM; confirmation average;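 mean of two retest wells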
PABP FP inh retest: recorded beside PABP FP inh, whose call it bears; inhibition, %; compound at 20 µM; confirmation repeats;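 mean of two retest wells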
MT1-MMP act inh RFP: recorded beside MT1-MMP act inh, whose call it bears; RFP signal change, %; measured here: RFP expression control read;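 0 = vehicle wells; hits needed this value within 50% of zero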
Starred values were filed as active, the others as inactive; i = inactive; ? = inconclusive; . = not tested or not shown; + = active, no number; & = joins results of further samples; [ ] = another dose, or the depositor's remark. Not all compounds are listed. The share of hits here may be higher or lower than overall.

SMILES	MT1-MMP act inh	MT1-MMP act inh RFP	UUG fidelity	Rce1 inhib	PABP FP inh	eIF4H inh	Env fusion inh	CSC inhib	others
CC(C)c1cc(CNC(=O)C2CCC(=O)N(CCc3ccc(Cl)cc3)C2)on1 (configuration not stated)	1	-2	-17	i	-7	-6	4	-8
O=C(Nc1ccn(CCCN2CCN(Cc3ccc(F)cc3)CC2)c(=O)n1)OCc1ccccc1	-2	-8	-21	.	.	.	1	.
O=C(O)C1CCCN1S(=O)(=O)c1ccc(Cl)cc1 (configuration not stated)	4	6	-11	i	-6	-4	-12	4
CCCCc1cc(=O)oc2cc(OCc3nn[nH]n3)c(Cl)cc12	1	-6	-25	i	14	-3	.	-13
CCn1cc(C(=O)NCC2CCCO2)c2cc(OC)c(OC)cc2c1=O (configuration not stated)	2	-2	0	i	4	-3	-11	-6
Cc1cccc(N2CCN(C(=O)c3ccccn3)CC2C)c1 (configuration not stated)	1	3	.	i	2.3*	?	7	-2	PABP FP inh retest=80*
Cc1ccc(-n2cccn2)c(CN2CCC(CO)(CCc3ccccc3)CC2)c1	3	1	.	i	-8	5	-16	.
O=c1/c(=C\c2ccc(F)cc2)sc2n1CCCN=2	7	-2	.	.	-7	-3	-63	-3
Cc1ccc(C(=O)N/C(=C\c2ccc3c(c2)OCO3)C(=O)Nc2ccc(C(=O)O)cc2)cc1	-2	-3	.	i	-3	-13	1	-10
COc1ccc(C2=NOC(Cn3nc(C(=O)NCc4ccc(OC(F)(F)F)cc4)cc3-c3ccccc3)C2)cc1 (configuration not stated)	0	-12	-14	i	.	.	?	-3
CCOc1ccc(NC(=O)CC2C(=O)N(c3ccccc3)C(=S)N2Cc2ccccn2)cc1 (configuration not stated)	0	-5	-13	i	-3	4	-71	6
CC(=O)Nc1nc(C(=O)O)cs1	1	1	.	i	4	4	2	-6
CCCCn1c(SCC(=O)Nc2nnc(C)s2)nc2c1c(=O)n(C)c(=O)n2C	4	3	-11	i	-13	-9	5	.
CCOC(=O)C1CCN(c2ncnc3cc(OC)c(OC)cc23)CC1	-2	0	.	i	-1	-2	9	-12
COC(=O)C(C)(C(=O)OC)c1ccc([N+](=O)[O-])cn1	-2	-3	-22	i	2	-2	-105	-4
CNS(=O)(=O)c1cccc(C(=O)OCc2cc(C(C)=O)ccc2OC)c1	2	1	.	i	7	-3	-6	1
COc1ccc(S(=O)(=O)NCCc2ccccc2)c2cccnc12	4	-1	-15	i	19	-9	17	-2
CCCCNC(=S)Nc1cccc(C(C)=O)c1	3	4	-25	i	2	-5	-34	7
O=C(c1ccc(N2CCN(C(=O)c3ccc(F)cc3F)CC2)cc1)c1cccc(F)c1	4	-11	4	i	-3	-2	34	9
O=C(COC(=O)/C=C/c1cccc(C(F)(F)F)c1)NC1CCCCCC1	1	4	.	.	.	.	0	12
Nc1c(C(=O)N/N=C/c2ccc([N+](=O)[O-])cc2)sc2nnc(-c3ccccc3)c(-c3ccccc3)c12	.	.	.	i	9	2	.	0
CCN(CC)S(=O)(=O)c1ccc(C)c(NC(=O)COC(=O)c2ccc(C)c(S(=O)(=O)N3CCOCC3)c2)c1	2	6	-11	i	-2	-5	-2	0
COc1ccc(C(=O)c2c[nH]c(C(=O)NCc3cccnc3)c2)cc1	-4	-17	-8	i	-5	0	.	-22
COc1ccc(C(CNC(=O)c2ccc(NS(=O)(=O)c3ccc(F)c(C)c3)cc2)N(C)C)cc1 (configuration not stated)	0	-3	-19	i	.	.	-2	-11
Clc1ccc(CNc2nc(N3CCOCC3)nc(N3CCOCC3)n2)cc1	-5	-6	-11	i	5	-14	38	-2
C=CCN1CCc2c(cc(O)c(O)c2Br)[C@@H](c2ccccc2)C1	-6	-5	-10	i	.	.	6	33
O=C(OCCc1cc2ccccc2c(=O)o1)c1ccc(C(F)(F)F)cc1	3	-1	-12	.	.	.	-17	-6
Cc1cc(N2CCN(Cc3cn(C)nc3-c3ccccc3F)CC2)cc(C)n1	-17	-16	-10	i	3	1	15	31
COc1ccccc1NC(=O)CSc1nc(O)cc(=O)[nH]1	0	4	.	i	3	-19	.	2
COc1ccc(Cc2noc(CN(C)CC3CCN(Cc4ccccc4)CC3)n2)cc1OC	1	-3	.	i	-8	-11	14	20
Cc1nc(C(=O)NNC(=O)c2ccccc2)c(C(F)(F)F)o1	-2	-1	-12	i	3	7	11	-4
Cc1c(NC(=O)CSc2nnc(Nc3ccccc3)s2)c(=O)n(-c2ccccc2)n1C	1	3	.	i	-13	10	14	-11
CCn1c2ccccc2c2cc(/C=N/NC(=O)c3cc(O)cc(O)c3)ccc21	-1	-4	-12	+	8	6	-26	84*
COc1ccc2c(c1)CC/C2=N\OC(=O)c1cccc(C)c1	-2	-1	.	i	5	-4	-125	6
CC[C@H](C)[C@H]1CNC(=O)C(=O)N1CC1CCN(CCCc2ccc(OC)c(OC)c2)CC1	2	6	-25	.	.	.	-79	.
Cc1cc(C)c(CN2CCN(C(=O)Cn3cnc4c(NCc5ccccc5)ncnc43)CC2)c(C)c1	7	-28	-6	.	.	.	87*	.
O=C(CSc1n[nH]c(-c2ccccc2)n1)Nc1ccccc1O	1	-6	-19	i	8	7	-23	22
COC(=O)Cc1ccc(NC(=S)NCc2ccc(Cl)cc2)cc1	1	3	.	i	2	2	-15	-11
CCCn1c(SCC(=O)Nc2nc(C)c(C(=O)OC)s2)nnc1C(C)C	-5	-2	3	i	-5	7	.	-8
O=C(Nc1ncc([N+](=O)[O-])s1)C1COc2ccccc2O1 (configuration not stated)	13	-30	-21	i	4	-7	-6	54
CCCNc1ncnc2[nH]ncc12	-6	4	-20	.	.	.	-3	.
COc1ccc(-c2c3c(=O)n(C)c(=O)n(C)c3cn2-c2cc(OC)ccc2OC)cc1	-5	-3	4	i	-7	-9	.	7
COc1ccccc1N1CCN(CCCNC(=O)Nc2ccccc2)CC1	9	4	-21	i	10	-2	.	-8
COc1ccc(-c2nc3c4ccccc4ccn3c2CN2CCOCC2)cc1OC	-3	-2	5	i	18	4	-88	-14
COCCn1c(N)c(N(Cc2ccccc2)C(=O)c2cc3ccccc3o2)c(=O)[nH]c1=O	-7	-7	.	i	7	15	0	-6
CN1CCN(S(=O)(=O)c2ccc(NC(=O)c3ccco3)cc2)CC1	2	2	-16	i	5	2	.	4
Cc1cc(C)cc(-c2nc(-c3ccncc3)no2)c1	2	1	-19	i	-1	-4	-31	10
COc1ccc(/C=C2/Sc3ccc(C(=O)NCCCN4CCOCC4)cc3NC2=O)cc1OC	2	2	-14	i	16	10	3	7
Cc1ccc(-c2nc(-c3ccccn3)no2)cc1[N+](=O)[O-]	1	0	.	i	-8	-7	-14	4
COC(=O)[C@H](C)NC(=O)Nc1ccc(S(N)(=O)=O)cc1	-5	3	-12	i	4	2	.	.
COc1ccc(OCC(=O)N2CCN(C(=O)c3ccco3)CC2)cc1	-6	-5	1	i	-8	-4	23	-5
CSc1nc(N2CCOCC2)c2c(c1C#N)CC(C)(C)OC2	3	5	.	i	-4	14	.	-8
CC(C)C1COC(c2cccc3ccccc23)=N1 (configuration not stated)	4	-4	-16	i	-15	6	-120	14
Cn1c(NC(=O)/C=C/c2ccccc2)cc(=O)n(C)c1=O	0	3	-5	i	-13	-6	-10	-14
COc1ccccc1CNC(=O)Cn1ccc2cc(S(=O)(=O)N3CCCC3)ccc21	1	2	-13	i	1	-4	29	-8
O=C(NC1=NCCS1)c1sc2cc(F)ccc2c1Cl	7	2	.	i	13	-7	-12	15
Cc1cc(-c2csc(NC(=O)c3ccc(=O)[nH]c3)n2)c(C)n1Cc1ccccc1	-7	1	.	.	32	?	31	-5
C[C@@H]1CN([C@@H](C)CO)C(=O)CCCn2nncc2CO[C@@H]1CN(C)S(=O)(=O)c1ccc2ccccc2c1	0	1	-18&4	.	.	.	14[16.7 µM]	.
Cc1ccc(C)c(OCc2cc(C(=O)N3CCN(c4ccccc4)CC3)no2)c1	-3	0	-5	i	-11	-12	.	-9
COc1ccc(CNC(=O)c2cccnc2SC)cc1OC	-1	-1	.	i	16	6	-2	-7

More structures
SMILES	MT1-MMP act inh	MT1-MMP act inh RFP	UUG fidelity	Rce1 inhib	PABP FP inh	eIF4H inh	Env fusion inh	CSC inhib	others
O=C(Nc1ccc(S(=O)(=O)N2CCOCC2)cc1)C1CCCCC1	0	-1	.	i	-18	-15	-38	-4
CCCCN(CC)C(=O)c1ccccc1Oc1ccccc1	-2	1	.	i	2	5	-2	0
Cc1ccccc1C(=O)OC1OC(=O)C(Cl)=C1Nc1ccccc1 (configuration not stated)	-2	-3	.	i	-4	3	13	-6
COc1ccc(N2C(=O)C3CCCCC3C2=O)cc1NC(=O)c1ccccc1 (configuration not stated)	-6	0	.	i	-6	-5	6	-11
Cc1ccc(N=Nc2c(N)n[nH]c2N)cc1	6	0	-10	i	-3	-3	-9	6
O=C(Nn1c(-c2ccc(F)cc2)nc2ccccc2c1=O)C1CCCCC1	6	0	-41	i	-2	-8	.	-16
COc1cc(-c2nnc3sc(-c4ccco4)nn23)cc(OC)c1OC	2	-2	-15	i	-8	-4	10	-4
CN(C)S(=O)(=O)N(CC(=O)NCc1ccccc1)c1ccccc1	-1	3	-10	i	-5	5	.	-16
Cc1cc(C)n(CCNC(=O)[C@H]2O[C@@H](n3ccc(=O)[nH]c3=O)[C@H](O)[C@@H]2O)n1	-1	3	-5	.	.	.	-16	.
C=CCC1CCCCC12NC(=O)NC2=O (configuration not stated)	1	6	-17	i	12	-3	-59	-7
CC(Cc1ccccc1)NC(=S)CN1CCCC1=S (configuration not stated)	1	-2	.	i	-3	53*	-1	-5	eIF4H inh retest=74*;PABP FP inh retest=44
Cc1cccc(NNC(N)=S)c1	-2	2	.	i	-3	-3	-6	.
Nc1nc(SCC(=O)Nc2ccccc2)nc2nc3c(cc12)CCCC3	-5	-10	.	i	0	-5	.	5
COCC(COCCCNC(=O)Nc1ccc(Br)cc1)OC (configuration not stated)	2	1	-17	i	-12	-2	.	.
Cc1cccc(C(=O)NNC(=O)c2ccc(-c3ccccc3)cc2)c1	6	6	-4	i	-1	-8	.	-1
c1ccc2c(c1)nc(NC1CCCCC1)c1nncn12	-5	-4	-14	i	-21	-3	15	-1
O=C(Cc1ccc(NC(=O)C2CCCN(C(=O)C3CCCC3)C2)cc1)Nc1ccc(C(=O)N2CCOCC2)cc1 (configuration not stated)	3	1	-36	.	.	.	5	.
Cc1cc(C)c(C)c(S(=O)(=O)NCc2ccc(C(=O)N3CCOCC3)cc2)c1C	-2	-1	2	i	-2	4	4	-11
CCOc1ccc2nc(N(CCN(CC)CC)C(=O)c3ccc([N+](=O)[O-])cc3)sc2c1	3	6	-4	i	0	14	4	17
Cc1ccc(S(=O)(=O)N2CCOCC2)cc1NC(=O)C(c1ccc(Cl)cc1)C(C)C (configuration not stated)	-3	-9	.	i	.	.	-29	-8
Cc1ccc(C(=O)Nc2ccc(S(=O)(=O)N3CCOCC3)cc2)cc1C	-5	-5	-15	i	11	22	-9	-4
